SARS PLP yeast: qHTS of Yeast-based Assay for SARS-CoV PLP. S. cerevisiae expressing SARS-CoV PLpro, growth rescue; control for the full effect not named in the record. 0.19% of 330,000 active. Potency, µM (titrated, usually from 32.9 µM), without a hit: at the highest dose activity, positive = growth rescue; further: 0% is about no effect; nearly all actives have a fitted effect of over 55% in size; growth read by luminescence after 48 h
Cruzain noTriton: qHTS Assay for Promiscuous and Specific Inhibitors of Cruzain (without detergent); Cruzipain (Trypanosoma cruzi), P25779; purified cruzain, Z-FR-AMC fluorescence, no detergent; Potency, µM, without a hit: max response, negative = inhibition, most hits filed as inhibitors; 2.3% of 200,000 active; active means well fitted curve in the direction sought with a large enough effect; inconclusive means small, poorly fitted or top-dose-only effect, or another doubt; inactive means no such curve, though single readings can be large; an effect the other way counts as inactive or inconclusive;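 further: plate controls were enzyme without inhibitor for no effect and buffer without enzyme for full effect; nearly all actives have a fitted effect of over 40% in size; top concentration of the series not given in the record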
Target sequence (P25779 123-467 limits assumed): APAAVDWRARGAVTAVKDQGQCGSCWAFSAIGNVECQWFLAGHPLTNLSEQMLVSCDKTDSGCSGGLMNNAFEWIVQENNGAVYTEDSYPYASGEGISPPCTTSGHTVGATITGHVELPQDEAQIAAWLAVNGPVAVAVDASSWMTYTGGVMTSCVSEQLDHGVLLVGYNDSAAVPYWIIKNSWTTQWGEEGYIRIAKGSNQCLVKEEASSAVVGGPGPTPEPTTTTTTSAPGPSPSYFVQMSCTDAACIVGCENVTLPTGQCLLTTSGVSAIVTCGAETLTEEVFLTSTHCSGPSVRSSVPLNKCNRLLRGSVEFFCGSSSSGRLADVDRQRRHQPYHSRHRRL
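Purified cruzain at 1.5 nM, pre-incubated 15 min with compound at room temperature in 100 mM sodium acetate pH 5.5, 5 mM DTT, 0.00005% Triton X-100. Reaction started with 2 uM Z-FR-AMC; AMC fluorescence increase over 60 s gives rate.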
Lassa entry inh: qHTS for Inhibitors of binding or entry into cells for Lassa Virus; AID 540256, 2011; 1.2% of 300,000 active; Potency, µM (titrated, usually from 37.9 µM), inactives show at the top dose activity change, negative = inhibition, most hits filed as inhibitors; Lassa virus pseudotype entry inhibition, cell reporter; control for the full effect not named in the record; active means well fitted inhibition curve with a large enough effect; inconclusive means small, poorly fitted or top-dose-only effect, or effect the other way; inactive means flat fitted curve, though single readings scatter; tested in HEK293 cells; further: on the % scale 0 is the no-effect control and ±100 the full control effect; nearly all actives have a fitted effect of over 50% in size; luciferase read-out
Cruzain Triton: qHTS Assay for Promiscuous and Specific Inhibitors of Cruzain (with detergent); purified cruzain, Z-FR-AMC fluorescence, 0.01% Triton; Potency, µM, for the others: max response, negative = inhibition, actives largely listed as inhibitors; 0.43% of 200,000 active; AID 1478, 2009; active means well fitted curve in the direction sought with a large enough effect; inconclusive means small, poorly fitted or top-dose-only effect, or another doubt; inactive means no such curve, though single readings can be large; an effect the other way counts as inactive or inconclusive;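 further: plate controls were neutral wells for no effect and buffer without enzyme for full effect; nearly all actives have a fitted effect of over 40% in size; top concentration of the series not given in the record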
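Sodium acetate buffer (100 mM, pH 5.5) containing 5 mM DTT and 0.01% Triton X-100 hosted 1.5 nM cruzain and test compound for 15 min at room temperature. Cleavage of 2 uM Z-FR-AMC was then tracked by fluorescence.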
2A StopGo: High Throughput Screening for Foot and Mouth Disease Virus Antivirals | 1.2% of 410,000 active | human cells with a luciferase reporter of 2A StopGo recoding; control for the full effect not named in the record | Potency, µM (doses to about 57.9 µM), for inactives: top-dose signal change, negative = less light | AID 1159524, 2015; active = well fitted falling curve with a large enough effect; inconclusive = small, poorly fitted or top-dose-only effect; inactive = no such curve, though single readings can be large or run the other way; tested in HEK293T cells; further: on the % scale 0 is the no-effect control and ±100 the full control effect; nearly all actives have a fitted effect of over 45% in size; luciferase light after 4 h
RE007 growth inh: qHTS Assay for Inhibitors of the HIV-1 protein Vpr; S. pombe RE007 Vpr strain, BacTiter-Glo ATP luminescence, 24 h; control for the full effect not named in the record; Potency, µM (top dose mostly 92.2 µM), without a hit: at the top dose activity change, negative = less growth; 0.21% of 360,000 active; active = well fitted falling curve with a large enough effect; inconclusive = small, poorly fitted or top-dose-only effect; inactive = no such curve, though single readings can be large or run the other way;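 further: on the % scale 0 is the no-effect control and ±100 the full control effect; nearly all actives have a fitted effect of over 50% in size; the assay follows cell death caused by Vpr and the record does not say whether a fall means rescue or toxicity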
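Fission yeast strain RE007, carrying one chromosomally integrated HIV-1 vpr copy, was seeded at OD 0.01 in PMG+AL medium with 23 nL pinned compound. After 24 h at 30 °C and 99% humidity, viability was read by BacTiter-Glo luminescence.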
NS1 function inh: qHTS Assay for Inhibitors of Influenza NS1 Protein Function. S. cerevisiae slowed by influenza A NS1, growth recovery by OD600. Potency, µM (doses to about 46.1 µM), inactives show top-dose activity, positive = more growth. 0.4% of 270,000 active; further: actives are rising curves; nearly all actives have a fitted effect of over 50% in size
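Growth recovery, yeast-based: influenza A NS1 expressed in S. cerevisiae causes slow growth, and suppressors are detected by OD600. The parent strain without NS1 is used as positive control.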
MARV entry inh: qHTS for inhibitors of binding or entry into cells for Marburg Virus; Marburg virus pseudotyped entry inhibition, cell reporter; control for the full effect not named in the record; about a third of the inactives were read at about 46 µM; 1.8% of 300,000 active; AID 540276, 2011; Potency, µM (doses to about 37.8 µM), without a hit: at the top dose activity change, negative = inhibition, actives largely listed as inhibitors; active = well fitted inhibition curve with a large enough effect; inconclusive = small, poorly fitted or top-dose-only effect, or effect the other way; inactive = flat fitted curve, though single readings scatter; tested in HEK293 cells; about a fifth of its hits are not listed in these tables; further: on the % scale 0 is the no-effect control and ±100 the full control effect; luciferase read-out
The depositor's hits bear a star; ? = inconclusive; . = no result given; [ ] = dose if it differs, or a comment. Unless noted, the call rests on the fitted dose curve; in most records, active means well fitted rising curve with a large enough effect; inconclusive means small, poorly fitted or top-dose-only effect; inactive means no such curve, though single readings can be large or run the other way. Potency means the concentration at half of the fitted maximal effect.

SMILES | SARS PLP yeast | Cruzain noTriton | Lassa entry inh | Cruzain Triton | 2A StopGo | RE007 growth inh | NS1 function inh | MARV entry inh
CC(=O)c1ccc(Nc2nc(N3CCOCC3)nc(N3CCOCC3)n2)cc1 | 1% | . | . | . | 30%[activator] | -4% | 0% | .
CCOC(=O)c1cccc(NC(=O)c2cc3cc4ccc(C)cc4nc3s2)c1 | . | 8% | 0%[46.1 µM] | -2.3% | -4% | . | . | 10%[46.1 µM]
Cc1cccc(-c2nnc(-c3ccc4ccccc4c3)o2)c1 | . | . | ? | . | -30% | -1% | . | ?
O=C(c1ccc(N2C(=O)CCC2=O)cc1)N1CCOCC1 | -2% | 4% | -21% | 0.0% | . | 11% | 11% | 1%
Cc1cccc(-n2c3nc(=O)[nH]c(=O)c-3cc3c(C)nn(-c4ccccc4)c32)c1 | 7% | -2% | 2% | -4.2% | . | . | 6% | 25%
Cc1ccc(C)c(CN2C(=O)c3ccccc3S(=O)c3ccc(C(=O)N4CCC(C)CC4)cc32)c1 (stereo unspecified) | . | 14% | 12%[46.1 µM] | -1.7% | 0% | . | . | 0%[46.1 µM]
CC(=O)OC1CCC2C3CCC4OC(=O)CCC4C3CCC12C (stereo unspecified) | . | . | 13% | . | -11% | -6% | . | 1%
CCCCOC(=O)C1=C(C)NC(=O)NC1c1ccc(OC)cc1 (stereo unspecified) | 4% | . | -26%[46.1 µM] | . | -14% | -1% | 27% | -2%[46.1 µM]
O=C(COC(=O)COc1ccccc1)Nc1ncc(Cl)cc1Cl | -2% | . | -2% | . | -5% | 9% | . | -1%
CCCC1=[N+](CC(=O)c2ccccc2)CCn2c(C)ccc21 | -6% | -17% | -15% | -0.4% | ? | -22% | 19% | -6%
CN1CCN(C(=S)Nc2cc([N+](=O)[O-])ccc2Cl)CC1 | -25% | 9% | 13% | -13% | 39%[activator] | -30% | -18% | 21%
CN(CC(=O)Nc1ccc(F)c(F)c1F)C(=O)Cc1ccc2c(c1)OCCO2 | 2% | . | 16% | . | -6% | 0% | -1% | 22%
Cc1ccc(-n2nnnc2C(Cl)c2nnnn2-c2ccc(C)cc2)cc1 | -115% | 5% | . | -1.0% | 10% | 30% | -26% | 4%
O=C(CC1N=C2c3ccccc3N=C(SCc3cccc(Cl)c3)N2C1=O)NCCc1ccccc1 (stereo unspecified) | . | 11% | ? | -8.0% | -9% | . | . | .
CCCCc1nnc(NC(=O)CCc2ccccc2)s1 | 5% | . | . | . | -18% | 4% | 20% | .
CC(=O)Nc1ccc(NC(=O)Cc2sc(C)nc2-c2ccc(C)cc2)cc1 | ? | -8% | 16% | -0.4% | 11% | -15% | 7% | 9%
COc1cc(OC)c(OC)cc1CNC(C)C(O)c1ccccc1 (stereo unspecified) | 0% | 3% | -1% | -0.8% | 9% | -7% | 3% | 12%
Cn1c(=O)c(=O)n(C)c2cc(NC(=O)c3cccc(F)c3)c(Cl)cc21 | . | -20% | -1%[46.1 µM] | -5.2% | -18% | . | . | 3%[46.1 µM]
Cc1c(C)n(C)c2ccc(C(=O)NCCCN3CCN(C)CC3)cc12 | 0% | . | ? | . | -5% | -10% | -1% | ?
CC1CCN(C(=O)CN2C(=O)C(C)(C)Oc3ccc(C(=O)NC(C)C)cc32)CC1 | -5% | . | 9% | . | 7% | 16% | 0% | 9%[46.1 µM]
Cc1cc(C)nc(NN2C(=O)/C(=C/c3ccc(O)cc3)SC2=S)n1 | 4% | -27% | 1% | -6.6% | -24% | -3% | 12% | 4%
CCOC(=O)C(NC(C)=O)(OCc1ccccc1)C(F)(F)F (stereo unspecified) | 7% | 1% | 11% | -0.8% | -7% | -1% | -3% | 3%
CSCCC(NC(=O)COc1ccccc1)C(=O)N(C)CC(=O)Nc1c(C)cccc1C (stereo unspecified) | . | . | -25% | . | 9% | -22% | . | -21%[46.1 µM]
COc1ccc(C(=O)NNC(=S)NC(=O)c2cccs2)cc1 | -38% | . | ? | . | -8% | -9% | -89% | ?
O=C(CC12CC3CC(CC(Br)(C3)C1)C2)OCCN1CCCCC1 | 3% | . | 19% | . | 19% | -13% | . | -28%[46.1 µM]

Next section:
SMILES | SARS PLP yeast | Cruzain noTriton | Lassa entry inh | Cruzain Triton | 2A StopGo | RE007 growth inh | NS1 function inh | MARV entry inh
C=C1C(C(=O)Nc2ccc(F)cc2)C1C(=O)Nc1ccc(F)cc1 (stereo unspecified) | 2% | . | . | . | -20% | -6% | 3% | .
O=C1CC(c2ccco2)CC2=C1C(c1ccccc1)n1nc(C(F)(F)F)nc1N2 (stereo unspecified) | 4% | -5% | -2% | -13% | -23% | 8% | 8% | -27%
CCOC(=O)Cc1csc(N)n1 | 8% | -10% | 9% | 0.0% | 18% | 9% | 5% | 1%
COc1cccc(NS(=O)(=O)c2ccc3[nH]cc(C(=O)NC4CC4)c(=O)c3c2)c1 | -11% | -5% | -7% | -9.6% | -5% | -18% | 8% | 5%
CCOc1cc(/C=C(\C#N)C(=O)Nc2ccc(S(N)(=O)=O)cc2)ccc1OCCN1CCOCC1 | 20% | . | 0% | . | 0% | -8% | 4% | 14%
COCCCNS(=O)(=O)c1ccc2[nH]c(=O)[nH]c2c1 | 1% | . | 0% | . | 12% | 4% | 1% | 3%
O=C(CSc1nccc2ccccc12)N1CCN(Cc2ccc3c(c2)OCO3)CC1 | . | . | -23% | . | -25% | -3% | . | 16%[46.1 µM]
COc1ccccc1CNC(=O)CCSCc1cccc(Cl)c1 | 5% | 1% | 2% | -7.1% | -9% | 14% | -2% | 19%
COC(=O)C(Cc1ccccc1)NC(=O)CSc1nc(C)cc(=O)[nH]1 (stereo unspecified) | 2% | -5% | . | -2.6% | -5% | -13% | -2% | .
COc1ccc(C(CNC(=O)c2ccc(S(=O)(=O)N3CCOCC3)cc2)N2CCCCC2)cc1 (stereo unspecified) | -1% | -9% | 6% | 2.0% | -12% | -1% | -2% | -5%
Cn1nnnc1SCCNCc1ccccc1OCc1ccccc1Cl | -1% | . | 1% | . | ? | -14% | . | -30%[46.1 µM]
C/C=C\C=C\C(=O)N1CC2(CC(c3cccc(NC(=O)COc4ccc(Cl)cc4)c3)=NO2)C[C@H]1C(N)=O (stereo partly specified) | 2% | . | . | . | -2% | 9% | 5% | .
O=C(C1CCC(Cn2c(=O)c3sccc3n(Cc3ccc(F)cc3)c2=O)CC1)N1CCOCC1 (stereo unspecified) | . | ? | 21%[46.1 µM] | -7.3% | 0% | . | . | .
COc1ccc(N2CCN(C(=O)CCc3ccc(S(=O)(=O)NC(C)C)cc3)CC2)cc1 | -32% | 13% | 0% | -0.8% | . | 6% | -4% | ?
Cc1ccc(S(=O)(=O)N2CCCC2)cc1C(=O)N1CCC(C)CC1 | 3% | . | -16% | . | -3% | -10% | -1% | 0%
CCOC(=O)N1CCN(Cc2nc(N)nc(Nc3ccccc3C)n2)CC1 | 9% | -2% | 6% | 0.4% | 9% | 5% | 6% | 9%
CC(=O)c1ccc(Nc2nc3ccc(C)cc3n3cnnc23)cc1 | 0% | . | -16%[46.1 µM] | . | 4% | -20% | 4% | 1%[46.1 µM]
Cc1ccc(NC(=O)c2cccc(S(C)(=O)=O)c2)cc1 | 0% | . | ? | . | 27% | -7% | . | 23%[46.1 µM]
CC(C)CN1CCC(C(=O)N2CCN(c3ccccc3F)CC2)CC1 | -12% | 6% | 4% | 2.4% | -17% | . | 8% | ?
COc1cc(C(C)=O)ccc1OCC(=O)OCCCOC(=O)COc1ccc(C(C)=O)cc1OC | -1% | . | 19% | . | -23% | 1% | -4% | 6%
O=c1[nH]c2c(s1)C(c1ccc(O)cc1)C1C3CCC(C3)C1S2 (stereo unspecified) | 0% | 4% | . | -15% | -6% | -8% | 6% | .
CN(CC(=O)Nc1cccc(F)c1)C(=O)c1ccc(C2SCCS2)cc1 | . | . | -6% | . | ? | 15% | . | ?
CC(C)=N/N=C1\NC(=O)C(C)S1 (stereo unspecified) | -5% | . | . | . | 2% | 2% | 0% | .

Exported as tab-separated lines: entries from further up
SMILES	SARS PLP yeast	Cruzain noTriton	Lassa entry inh	Cruzain Triton	2A StopGo	RE007 growth inh	NS1 function inh	MARV entry inh
Cc1ccc(S(=O)(=O)N2CCCC2)cc1C(=O)N1CCC(C)CC1	3%	.	-16%	.	-3%	-10%	-1%	0%
CCOC(=O)N1CCN(Cc2nc(N)nc(Nc3ccccc3C)n2)CC1	9%	-2%	6%	0.4%	9%	5%	6%	9%
CC(=O)c1ccc(Nc2nc3ccc(C)cc3n3cnnc23)cc1	0%	.	-16%[46.1 µM]	.	4%	-20%	4%	1%[46.1 µM]
Cc1ccc(NC(=O)c2cccc(S(C)(=O)=O)c2)cc1	0%	.	?	.	27%	-7%	.	23%[46.1 µM]
CC(C)CN1CCC(C(=O)N2CCN(c3ccccc3F)CC2)CC1	-12%	6%	4%	2.4%	-17%	.	8%	?
COc1cc(C(C)=O)ccc1OCC(=O)OCCCOC(=O)COc1ccc(C(C)=O)cc1OC	-1%	.	19%	.	-23%	1%	-4%	6%
O=c1[nH]c2c(s1)C(c1ccc(O)cc1)C1C3CCC(C3)C1S2 (stereo unspecified)	0%	4%	.	-15%	-6%	-8%	6%	.
CN(CC(=O)Nc1cccc(F)c1)C(=O)c1ccc(C2SCCS2)cc1	.	.	-6%	.	?	15%	.	?
CC(C)=N/N=C1\NC(=O)C(C)S1 (stereo unspecified)	-5%	.	.	.	2%	2%	0%	.

No enrichment for hits. Share with any hit: about 4.7%.
